Screens (PubChem)
Sfp PPTase inh = blocks B. subtilis Sfp PPTase activity | Biochemical Sfp PPTase activity, qHTS | Potency, µM, without a hit: max response, negative = inhibition, hits mostly inhibitors | Q9F4F7 | hit rate 3.5% among 310,000; active = well fitted inhibition curve with a large enough effect; inconclusive = small, poorly fitted or top-dose-only effect, or another doubt; inactive = no such curve, though single readings can be large or run the other way;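 note: the enzyme is Sfp with the accession as filed and its product quenches rhodamine fluorescence; potency is the fitted concentration of half-maximal effect; 0% = enzyme reaction without inhibitor and -100% = no enzyme wells; top concentration of the series not given in the record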
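Fluorescence-quenching assay: 15 nM Sfp-PPTase preincubated 15 min at room temperature with compound, then 5 uM rhodamine-CoA and 12.5 uM BHQ-2-labelled YbbR peptide added. Fluorescence (ex 525/em 598 nm) read at start and after 30 min; difference gives rate.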
Menin MLL FP FL = inhibitors of human menin-MLL interaction, wild-type MLL peptide | Fluorescence polarization, fluorescein-MLL peptide displacement from menin | FP activity change, % at 61.4 µM | 290,000 tested, under 10 active; inconclusive = falling polarisation curve, or a change in total fluorescence; inactive = total fluorescence flat and polarisation flat or rising; no compound was filed as active; the % refers to the polarisation; negative = inhibition;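 note: % of control where 0% means no effect; inhibitors lower the polarisation; unlabelled MLL peptide was the positive control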
An asterisk follows results filed as active; ? = inconclusive; & = joins results of further samples; [ ] = remark or other dose. Only part of the results is shown (hit frequency here may not be typical).

Sfp PPTase inh | Menin MLL FP FL | structure
17% | 0.2[24.8 µM] | C[C@@H]1[C@H](C)CC[C@@]2(C(=O)O)CC[C@]3(C)C(=CC[C@H]4[C@@]5(C)CC[C@@H](O)C(C)(C)[C@@H]5CC[C@@]43C)[C@@H]12
7% | ? | O=c1c(-c2cc(F)cc(F)c2)nc2cnc(Nc3ccccc3)nc2n1C[C@H]1CCCO1
-36% | -0.4 | CC12CCC3c4ccc(OCc5ccccc5)cc4CCC3C1CC(O)C2O (centres undefined)
1% | 0.2 | COC(=O)[C@@]1(Cc2ccccc2)[C@H]2c3cc(C(=O)N4CCCC4)n(CC4CC4)c3C[C@H]2CN1C(=O)c1ccccc1
6% | 3.5 | C=C(C)C1CC=C(C)CC1 (centres undefined)
23% | 5.6 | COc1cc(O)cc(O)c1
15% | -1.6[24.8 µM] | CO[C@H]1C[C@@H](O[C@@H]2[C@H](C)[C@H](O[C@@H]3O[C@@H](C)C[C@@H](N(C)C)[C@@H]3O)[C@H](C)C[C@]3(CO3)C(=O)[C@H](C)[C@H](O)[C@H](C)[C@H](C)OC(=O)[C@@H]2C)O[C@@H](C)[C@H]1O
-8% | -1.5 | COC(=O)CN1CC(=O)c2ccccc2S1(=O)=O
23% | 1.2 | COc1cc2c3cc1Oc1cc(ccc1O)C[C@@H]1c4c(cc(OC)c(O)c4Oc4ccc(cc4)C[C@@H]3N(C)CC2)CC[N+]1(C)C
-22% | 12 | CN(C)CC1CCn2c(c(C3=C(c4cn(C)c5ccccc45)C(=O)NC3=O)c3ccccc32)C1 (centres undefined)
-6% | 2.4 | CC(CCC#N)[N+](=O)[O-] (centres undefined)
1% | -10 | O=C(O)CCC/C=C\C[C@@H]1CO[C@H](C(F)(F)F)O[C@@H]1c1ccccc1O
1% | -0.6 | COCCNc1nc(-c2cccc(NS(C)(=O)=O)c2)nc2ccccc12
15% | 9.0 | O=c1c(CCc2ccccc2)nc2cncnc2n1Cc1ccccc1
16% | -4.4 | COC(=O)CNC(=O)C1(C)C=CC2(CCCCC2)N1C(C)=O (centres undefined)
32%[activator] | 1.2 | COC(=O)c1ccc(C(NC(=O)OCc2ccccc2)/C(=C/[C@@H](C)C(=O)NCC2CC2)c2cccnc2)cc1 (some centres undefined)
-13% | 1.8 | CN(Cc1ccco1)c1cc(-c2ccc3c(c2)OCO3)ncn1
8% | 0.3 | O=C1c2ccccc2C(Cc2ccnc(F)c2)(Cc2ccnc(F)c2)c2ccccc21
-18% | -2.8 | CC(C)(C)Nc1oc(-c2ccccc2)nc1-c1ccc(C(F)(F)F)cc1
-7% | 2.2 | N#CCCn1c(=O)c(-c2ccccc2)nc2cnc(OCc3ccccc3)nc21
-2% | -1.8[11.7 µM] | CC(C)=CCC/C(C)=C/CO/N=C1/C[C@@H](O)[C@@H](O)[C@@H]2[C@H]3C(=O)N(c4ccc(F)cc4F)C(=O)[C@@H]3CC[C@H]12
4% | 2.4 | CC1NC(=O)C(N)CNC(=O)C(C2CCN=C(N)N2)NC(=O)/C(=C/NC(N)=O)NC(=O)C(CNC(=O)CC(N)CCCN)NC1=O (centres undefined)
24% | 5.7 | Cc1nc2cnc(Oc3cccc(Cl)c3)nc2n(C[C@H]2CCCO2)c1=O
-6% | -1.9[11.7 µM] | O=C1[C@H]2[C@H]3[C@H](O)[C@H](O)C/C(=N/OCc4ccccc4)[C@@H]3CC[C@@H]2C(=O)N1C1CCCCC1
25% | -5.6 | COC(=O)N1CCC2(CCN(C(=O)Nc3cccc(C#N)c3)CC2)CC1
-9% | -2.8 | Nc1nc(Cl)nc2c1ncn2C1OC(CO)C(O)C1F (centres undefined)
18% | 1.8 | Cc1cccc(CNc2ncnc3ccc(-c4cccc(NS(C)(=O)=O)c4)cc23)c1
-12% | 2.6 | COc1ccc(-c2nnc3n2N=C(c2ccccc2OC)CS3)cc1OC
14% | 1.3 | CC(C)NC(=O)N1CC[C@@]2(CCCN(C(=O)c3cnccn3)C2)C1
-9% | -0.7 | Cc1cccc(CNc2ncncc2-c2ccc3c(c2)OCO3)c1

11 successive records from above:
Sfp PPTase inh | Menin MLL FP FL | structure
17% | 0.2[24.8 µM] | C[C@@H]1[C@H](C)CC[C@@]2(C(=O)O)CC[C@]3(C)C(=CC[C@H]4[C@@]5(C)CC[C@@H](O)C(C)(C)[C@@H]5CC[C@@]43C)[C@@H]12
7% | ? | O=c1c(-c2cc(F)cc(F)c2)nc2cnc(Nc3ccccc3)nc2n1C[C@H]1CCCO1
-36% | -0.4 | CC12CCC3c4ccc(OCc5ccccc5)cc4CCC3C1CC(O)C2O (centres undefined)
1% | 0.2 | COC(=O)[C@@]1(Cc2ccccc2)[C@H]2c3cc(C(=O)N4CCCC4)n(CC4CC4)c3C[C@H]2CN1C(=O)c1ccccc1
6% | 3.5 | C=C(C)C1CC=C(C)CC1 (centres undefined)
23% | 5.6 | COc1cc(O)cc(O)c1
15% | -1.6[24.8 µM] | CO[C@H]1C[C@@H](O[C@@H]2[C@H](C)[C@H](O[C@@H]3O[C@@H](C)C[C@@H](N(C)C)[C@@H]3O)[C@H](C)C[C@]3(CO3)C(=O)[C@H](C)[C@H](O)[C@H](C)[C@H](C)OC(=O)[C@@H]2C)O[C@@H](C)[C@H]1O
-8% | -1.5 | COC(=O)CN1CC(=O)c2ccccc2S1(=O)=O
23% | 1.2 | COc1cc2c3cc1Oc1cc(ccc1O)C[C@@H]1c4c(cc(OC)c(O)c4Oc4ccc(cc4)C[C@@H]3N(C)CC2)CC[N+]1(C)C
-22% | 12 | CN(C)CC1CCn2c(c(C3=C(c4cn(C)c5ccccc45)C(=O)NC3=O)c3ccccc32)C1 (centres undefined)
-6% | 2.4 | CC(CCC#N)[N+](=O)[O-] (centres undefined)

(continued)
Sfp PPTase inh | Menin MLL FP FL | structure
-21% | -1.8 | Fc1ccc(Nc2nc(-c3cccnc3)nc3ccccc23)cc1
8% | -0.5 | CNc1ccnc(-c2ccccc2OC)n1
? | 4.8 | O=C(c1ccc(Nc2nccc(-c3cc4ccccc4s3)n2)cc1)N1CCC(N2CCCC2)CC1
15% | 3.3 | CC(CC=O)CCCC(C)(C)O (centres undefined)
3% | -0.9 | COc1ccccc1CNc1ncncc1-c1cccc(C#N)c1
16% | 2.6[24.8 µM] | CN1CC[C@@]23c4ccccc4N[C@H]1[C@]21CCN(C)[C@@H]3Nc2ccccc21
15% | -1.2 | COc1ccc(NC(=O)N2CC[C@@]3(CCCN(C(=O)c4cnccn4)C3)C2)cc1
-1% | -13 | CCOCCOC(=O)C(C)Oc1ccc(Oc2ncc(C(F)(F)F)cc2Cl)cc1 (centres undefined)
7% | 0.2 | COc1cccc(-c2nc(N3CCN(C)CC3)c3ccccc3n2)c1
17% | -2.2 | CCCn1c(C)nc2c(N(C)CCN(C)C)nc(C)nc21
10% | -3.6 | N#Cc1ccc2c(c1)N(CCCN1CCC(O)CC1)c1ccccc1S2
-13% | 0.9[11.7 µM] | COc1cccc([C@H]2Oc3ccc(OC)cc3/C(=N\OCC[C@@H]3C=C[C@H](OC(C)=O)[C@H](COC(C)=O)O3)[C@@H]2O)c1
-1% | 0.0 | COc1ccc2c(c1)O[C@@H](c1cccc(C(F)(F)F)c1)[C@H](OC(=O)Nc1cc(OC)c(OC)c(OC)c1)C2=O
? | -3.5 | COc1cccc(C2=Nn3c(nnc3-c3ccccc3OC)SC2)c1
10% | 3.4[11.7 µM] | C[C@@H]1/C=C\CC(=O)OC[C@H]2O[C@@H](C=C[C@@H]2O)[C@H](C)/C=C\CC(=O)OC[C@H]2O[C@H]1C=C[C@@H]2O
2% | 2.7[11.7 µM] | COC(=O)C/C=C\[C@@H](C)[C@@H](/C=N\O[C@@H](C)CN1CCCc2nc(C)c(C)cc21)NS(=O)(=O)c1ccc(C)cc1
6% | ? | CN1CCN(c2ncc3nc(-c4cn(C)c5ccccc45)c(=O)n(C[C@H]4CCCO4)c3n2)CC1
-8% | -25[11.7 µM] | COC(=O)CCC(=O)OC1(C)C(=O)C=C2C=C(C3CC3)N(c3ccc(CO)cc3)C=C2C1=O (centres undefined)
8% | -9.0 | CC(=O)NCCNc1ncncc1-c1ccccc1CN(C)C
-3% | 26[94.6 µM] | CC[C@H]1C(c2ccccc2)=NN(c2ccccc2)[C@@H]1CO
9% | 1.6[11.7 µM] | CC1(C)OC(C(O)(c2ccccc2)c2ccccc2)C(C(O)(c2ccccc2)c2ccccc2)O1 (centres undefined)
11% | -17 | CCCC1(C(=O)OC)C=C2C(=C(C(C)C)C(=O)C2C)CN1 (centres undefined)
-22% | -3.8 | NCCCCCc1cnc[nH]1
6% | 2.1 | O=c1c(-c2ccc(O)cc2)coc2cc(O[C@@H]3O[C@H](CO)[C@H](O)[C@H](O)[C@H]3O)ccc12
26%&18% | -2.3&-0.9 | CCCCCC[C@@H](O)C/C=C\CCCCCCCC(=O)O
12% | -1.3 | CC(C)CCCC(C)NC(C)C (centres undefined)
14% | 7.8 | OC[C@H]1O[C@@H](n2cnc3c(NC4CCCCC4)ncnc32)[C@H](O)[C@@H]1O
23% | -4.3[24.8 µM] | C=C1CC23C[C@H]4[C@@H]5[C@@]6(C)C[C@H](OC(=O)c7ccccc7)[C@@H](OC(C)=O)[C@]57[C@@H]2[C@@H](OC(C)=O)[C@H]1[C@@H](O)[C@H]3[C@H]7N4C6
-20% | ? | Cc1noc(C)c1-c1nc(Nc2ccncc2)c2ccccc2n1
2% | ? | COC(=O)C1=C[C@@H](C(=O)OC)[C@@H]2C3=C(C(=O)[C@@]2(C)NC(=O)c2ccccc2)[C@H](C)[C@@H]2C(=O)N(c4ccccc4)C(=O)[C@@H]2[C@@H]3C1

Additional records
Sfp PPTase inh | Menin MLL FP FL | structure
10% | -1.3 | COC(=O)[C@@H]1CC2=CC(=O)CC[C@]2(C)[C@@]23O[C@@H]2C[C@@]2(C)[C@@H](CC[C@@]24CCC(=O)O4)[C@H]13
1% | -1.1 | O=c1c2ccccc2oc2ccccc12
-8% | 1.7[11.7 µM] | COC(=O)[C@@H]1CC[C@H](C)[C@@H](c2ccc(C)cc2)N1C(=O)c1ccc(/C=N\OCC[C@@H]2C=C[C@H](OC(C)=O)[C@H](COC(C)=O)O2)cc1
50µM* | 8.6[94.6 µM] | COc1cc(C2CC(=O)Oc3ccc(O)cc32)cc(OC)c1OC (centres undefined)
-4% | 0.7 | CN(C)CCC=C1c2ccccc2C(C)(C)c2ccccc21
6% | 4.4[11.7 µM] | CO[C@H]1COC(=O)[C@H]2CCCN2C(=O)C/C=C\[C@@H](C)[C@H](OC)COC(=O)C/C=C\[C@@H]1C
24% | 0.5 | COc1ccc(C(=O)N2CCC3(CC2)CCN(c2ccncc2)CC3)cc1
-13% | 3.7 | COC(=O)N[C@@H](CCc1ccccc1)/C(C(=O)OC)=C(\C)NCc1ccccc1
2% | -5.9 | O=c1c(-c2cc(F)cc(F)c2)nc2cnc(Oc3ccccc3)nc2n1C1CC1
15% | -5.2 | CCN(CC)CCCCn1c(-c2ccccc2)nc2c(NCc3ccccc3)nc(C)nc21
2% | -2.3 | CC(C)CC(N)C(=O)NC(C)C(=O)O (centres undefined)
? | 5.1 | CN(C)c1ccc(-c2cc(Nc3ccc(F)cc3)ncn2)cc1
10% | 0.2 | O=C(Nc1cccc(F)c1)N1CC[C@@]2(CCCN(C(=O)c3ccco3)C2)C1
-24% | -4.0 | Cc1cccc(CNc2ncncc2-c2cccc(NS(C)(=O)=O)c2)c1
4% | -0.4 | COc1ccccc1-c1nc(N(C)C)c2ccccc2n1
9% | 0.3 | CCCn1c(-c2ccc(F)cc2)nc2c(N3CCN(C)CC3)nc(C)nc21
-20% | 4.4 | COc1ccc2[nH]cc(CCNc3nc(-c4ccccc4CN(C)C)nc4ccccc34)c2c1
27% | -0.9 | C[C@]12CC[C@@H]3c4ccc(O)cc4CC[C@H]3[C@@H]1CCC2OC(=O)CCC1CCCC1 (some centres undefined)
15% | -2.2 | CC1(C)O[C@@H]2C[C@H]3[C@@H]4CCC5=CC(=O)C=C[C@]5(C)[C@H]4C(O)C[C@]3(C)[C@]2(C(=O)CO)O1 (some centres undefined)
-6% | 0.9 | Nc1nc2c(ncn2CCC(CO)CO)c(=O)[nH]1
6% | -1.3 | CCC1=C2CC[C@H]3C(=O)N(c4ccccc4)C(=O)[C@H]3[C@H]2[C@@]2(C)C(=O)N(CC(=O)OC)C(=O)N2C1=O
7%&9% | 4.4&-7.8 | CNC1=CN(O)C(c2ccccc2)=c2cc(Cl)ccc2=N1
-23% | 17 | COC(=O)c1ccc(C23CC2(C(NP(=O)(c2ccccc2)c2ccccc2)c2ccccc2)C3)cc1 (centres undefined)
7% | -11 | COc1ncc2nc(-c3cc(F)cc(F)c3)c(=O)n(C[C@H]3CCCO3)c2n1
23% | -0.1[24.8 µM] | NCC[C@H](O)C(=O)N[C@H]1C[C@@H](N)[C@@H](O[C@H]2O[C@@H](CN)[C@@H](O)[C@@H](O)[C@@H]2O)[C@@H](O)[C@@H]1O[C@H]1O[C@@H](CO)[C@@H](O)[C@@H](N)[C@@H]1O
1% | -4.6 | Oc1ccccc1C=NCc1ccccc1
4% | ? | C[C@]12C[C@H](O)CC(CO)(CO)C1[C@H](O)C[C@@]13CC4[C@@H](CC12)[C@@]4(C)C3 (some centres undefined)
6% | 0.7 | O=C(O)C1(O)CC(O)C(O)C(O)C1 (centres undefined)
-8% | ? | COc1cccc(Nc2ncc3nc(-c4cc(F)cc(F)c4)c(=O)n(CCC#N)c3n2)c1
6% | 2.5 | COc1ccco1
? | 9.6 | CN(C)c1ccc(-c2nc(NCc3cccnc3)c3ccccc3n2)cc1
